# Source: PubChem (National Center for Advancing Translational Sciences (NCATS))
# HPGD block = blocks human HPGD enzyme activity; P15428; purified HPGD, NADH fluorescence kinetic, PGE2 substrate; Potency, µM, for inactives: top-dose activity change, negative = inhibition, usual class: inhibitors; hit rate 4.3% among 150,000; active = well fitted inhibition curve with a large enough effect (not every such curve was filed as active); inconclusive = small, poorly fitted or top-dose-only effect, or another doubt; inactive = no such curve, though single readings can be large or run the other way;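 also: top concentration of the series not given in the record; plate controls included wells without enzyme; inactives centre near -10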
# Target sequence (P15428 whole entry, looked up): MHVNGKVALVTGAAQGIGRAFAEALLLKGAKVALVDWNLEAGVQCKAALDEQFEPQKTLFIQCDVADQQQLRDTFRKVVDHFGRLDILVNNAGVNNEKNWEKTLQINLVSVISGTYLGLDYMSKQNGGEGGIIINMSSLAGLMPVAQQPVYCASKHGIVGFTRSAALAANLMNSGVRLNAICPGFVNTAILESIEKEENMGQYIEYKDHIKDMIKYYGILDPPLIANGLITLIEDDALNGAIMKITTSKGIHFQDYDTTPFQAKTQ
#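 NADH formation kinetics: reaction with 30 uM PGE2 and 1 mM NAD+ (final), 20 nM enzyme, Tris-HCl pH 8 with Tween 20, after 15 min compound preincubation at room temperature. Fluorescence change, last versus first of five reads.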
# Starred values were filed as active, the others as inactive; ? = inconclusive; & = joins results of further samples. % is scaled to controls: 0 for no effect and ±100 for the full control effect; potency is read from the fitted curve at half-maximal effect. A portion of the library, so the mix of outcomes need not match the whole.
HPGD block | compound
-7.7% | CCOC(=O)c1ccc(NC(=O)C2C3CCC(C3)C2C(=O)O)cc1 (stereo unspecified)
-10.1% | O=C(C1CCCCC1)N1CCCn2c1nc1ccccc12
0.0% | O=C1CN(C(=O)c2cc([N+](=O)[O-])ccc2Cl)C(c2ccc(F)cc2)c2cc(F)ccc2N1 (stereo unspecified)
-6.6% | O=C(O)CCC(=O)N1CCc2cc(S(=O)(=O)N(CCc3ccccc3)Cc3ccccc3)ccc21
-6.5% | COCCOC(=O)c1[nH]c2c(c1C)C(=O)C(C(=O)OC)C(C)C2 (stereo unspecified)
-11.9% | CCc1nc(N2CCCCC2)c2oc3ccccc3c2n1
-21.9% | Clc1ccc(OCc2nc(-c3ccccn3)n[nH]2)cc1
-11.1% | COc1ccc(CCn2nnnc2C(c2ccccc2)N2CCN(C)CC2)cc1OC (stereo unspecified)
-6.7% | CCCCOc1ccc(C2(C(=O)O)CCCC2)cc1
-17.1% | c1ccc(SCc2nc(-c3ccncc3)no2)cc1
-12.1% | CN(C)c1cc(C(F)(F)F)nc(-c2ccccn2)n1
-3.1% | Cc1ccc(/C=C/C(=O)NCCCN2CCN(CCCNC(=O)/C=C/c3ccc(C)cc3)CC2)cc1
-12.3% | COc1ccc(Nc2nc(N)nc(COc3ccc(OC)cc3)n2)cc1
5.6% | C[n+]1cccc(CNC(=O)/C=N/O)c1
-9.4% | COc1ccccc1NC(=O)N1CCC(C(=O)c2ccc(F)cc2)CC1
-21.3% | Cc1ccc(C)n1-c1sc2c(c1C(=O)O)CCCC2
-2.1% | CN1C(=O)OC(C)(C)C1=O
-9.2% | COc1cccc(OC)c1C(=O)NN1CCCCC1
-16.0% | COc1ccc(-c2csc(NC(C)=O)n2)cc1OC
-9.2% | Cc1nnc(SCC(=O)Nc2ccc3c4c(cccc24)CC3)n1C
-2.7% | COc1ccc(/C=N/NC(=O)CCCCCNC(=O)c2ccccc2)cc1
? | COc1cc2c(cc1OC)C1=NC(=O)CN1C(SCc1ccccc1)=N2
-11.0% | COc1ccc(C2(C(=O)Nc3c(C)n(C)n(-c4ccccc4)c3=O)CCCC2)cc1OC
-5.0% | Cc1cc(C(=O)N2CCN(Cc3ccc4c(c3)OCO4)CC2)cs1
-16.1% | CC(NC(=O)COc1ccc(Oc2ccccc2)cc1)C(=O)O (stereo unspecified)

# Continued (3 carried over from the part before).
HPGD block | compound
-11.0% | COc1ccc(C2(C(=O)Nc3c(C)n(C)n(-c4ccccc4)c3=O)CCCC2)cc1OC
-5.0% | Cc1cc(C(=O)N2CCN(Cc3ccc4c(c3)OCO4)CC2)cs1
-16.1% | CC(NC(=O)COc1ccc(Oc2ccccc2)cc1)C(=O)O (stereo unspecified)
-9.2% | CN(C)/N=N\c1nc[nH]c1C(N)=O
-14.6% | CC(OC(=O)c1ccc2c(=O)n3c(nc2c1)CCCCC3)C(=O)Nc1ncc(Cl)cc1Cl (stereo unspecified)
0.9% | Cc1n[nH]c(C)c1C(=O)CC1(O)C(=O)N(CCc2ccccc2)c2ccc(Cl)cc21 (stereo unspecified)
-3.5% | Cc1cc([N+](=O)[O-])cnc1N1CCOCC1
-5.7% | Cc1cc(C)c2c(n1)sc1c(N3CCN(CCO)CC3)ncnc12
-7.9% | O=C1CCc2cc(S(=O)(=O)N3CCN(C(=O)c4ccco4)CC3)ccc2N1
? | Cc1nn(Cc2ccccc2Cl)c2sc(C(=O)NCc3ccc4c(c3)OCO4)cc12
-7.6% | S=c1nc(-c2nc(=S)[nH]c3c2CCCCCCCCCC3)c2c([nH]1)CCCCCCCCCC2
-13.4% | Cn1c(=O)n(C)c2cc(C(=O)O)ccc21
-2.2% | COc1cccc(N2CC(=O)N(NC(=O)CSc3nc(C)cc(C)c3C#N)CC2=O)c1
-4.7% | Cn1c2c(c(=O)n(C)c1=O)C(c1ccc(Br)cc1)Nc1ccccc1O2 (stereo unspecified)
-8.3% | COc1cc(NC(=O)c2cc(OC)c(OC)c(OC)c2)c(OC)cc1NC(=O)CN1CCCCC1
-6.7% | COc1cccc(N(C(=O)CNC(=O)c2ccco2)C(C(=O)NC2CCCCC2)c2ccncc2)c1 (stereo unspecified)
-7.5% | O=C(Cc1ccccc1)NNC(=O)Nc1cccc(Cl)c1
-4.0% | Cc1coc(C)c1C(=O)CC1(O)C(=O)Nc2cc(Cl)cc(Cl)c21 (stereo unspecified)
-22.0% | CCOC(=O)c1c(C)oc2ccc(OCc3cc(C(=O)OC)oc3C)cc12
-8.0% | CCN1C(=O)C2(SC(NC(C)=O)=NN2C(C)=O)c2cc(C)ccc21 (stereo unspecified)
-28.9% | CC1=CC(=O)OC1Cc1ccc2ccccc2n1 (stereo unspecified)
-5.6% | CCC(C)(C(=O)NC1CCCC1)N(Cc1cccs1)C(=O)c1ccc2c(c1)OCO2 (stereo unspecified)
15.8µM* | N#Cc1c(N)sc(=S)c2c1CCCCC2
-8.1% | COC(=O)Nc1ncc(CN2CCC(c3ccccc3)CC2)s1
-7.6% | O=C1CC(c2ccccc2)CC(O)=C1C=NCCN1CCN(C(=O)Nc2ccccc2)CC1 (stereo unspecified)
2.8% | CN(C)C(=O)Cn1cnc2c(cnn2-c2ccccc2Cl)c1=O
-2.5% | O=C(CSc1nccn1-c1cccc(Cl)c1)Nc1ccc2c(c1)OCCO2
-2.3% | Cc1noc(C)c1C(=O)N1CCN(CCc2ccccc2)CC1
-15.5% | CCOc1ccc2c(ccc(/C=C\c3cc(C)c4cccnc4c3O)[n+]2C)c1
-0.7% | CCOC(=O)c1cc2[nH]c3ccccc3c2[n+](-c2ccc([N+](=O)[O-])cc2)c1C
-9.6% | Cc1ccsc1/C=N\NC(=O)c1ccc2c(c1)OCO2
-11.4% | COC(=O)[C@@]1(Cc2ccccc2)[C@H]2c3cc(C(=O)N4CCCC4)n(Cc4nc5ccccc5[nH]4)c3C[C@H]2CN1C(=O)c1ccccc1
-9.0% | COC(=O)c1cccc(NC(=O)c2cccc(OC)c2)c1
-0.9% | Cc1nn(Cc2c(Cl)cccc2Cl)c(C)c1NC(=O)c1cc(C(C)C)on1
-16.1% | Nc1nc(C23CC4CCC(CC(C4)C2)C3)cs1
0.4% | COc1ccc(OC)c(S(=O)(=O)N(C)CC(=O)Nc2ccc3c(c2)OCCO3)c1
-8.4% | O=C(NCCc1ccccc1)C1CCN(C(=O)c2sccc2-n2cccc2)CC1
-9.4% | O=C(Nc1ccccc1F)NC1CCN(Cc2nnnn2Cc2ccc(F)cc2)CC1
-7.6% | CCCNS(=O)(=O)c1ccc(OCC(=O)N2CCOCC2)cc1
-4.6% | O=C1C(=O)N(c2cccc(Cl)c2)C(c2ccccc2[N+](=O)[O-])/C1=C(\O)c1ccccc1 (stereo unspecified)
-7.5%&-7.1% | O=C1C[C@@H](c2ccc(O)cc2)Oc2cc(O)cc(O)c21
-25.1% | CN(C)S(=O)(=O)c1cccc(NC(=O)COC(=O)c2cc(-c3cccc(Br)c3)nc3ccccc23)c1
-19.7% | Cn1nc(CC(=O)Nc2ccc(N3CCN(C(=O)OC(C)(C)C)CC3)cc2)c2ccccc2c1=O
4.47µM* | O=C(NC1CCCCC1)c1nc2c(nnn2Cc2ccccc2Cl)c(=O)[nH]1
-1.2% | Cc1ccc(C2=[N+]([O-])C3(CCCCC/C3=N\NC(N)=O)N(O)C2(C)C)o1 (stereo unspecified)
? | COP(=O)(OC)c1nc(-c2cccc3ccccc23)oc1NCc1ccccc1
-10.6% | CSc1nc2ccc(NC(=O)CSc3nnc(N)s3)cc2s1
-12.0% | CCCCC(CC)C(=O)NCc1ccccc1OC (stereo unspecified)
-11.1% | COc1c(Cl)ccc(Cl)c1C(=O)OCC(=O)O
-12.6% | O=C(O)c1cccc(N/N=C/c2cccs2)c1
-8.8% | Cc1ccc(C2(C)NC(=O)N(Cc3c(C)noc3C)C2=O)cc1 (stereo unspecified)
-6.9% | COc1cc(/C=N/NC(N)=O)cc(Br)c1OCc1ccccc1C
-28.5% | O=C1N=C(N2CCOCC2)SC1=C1CCCCC1

# The results go on:
HPGD block | compound
-4.0% | CCOc1ccccc1C(=O)Nc1ccccc1-c1ccccc1
-1.8% | Cc1ccc(SCC(=O)Nc2ccccc2C(=O)O)cc1
-8.6% | O=C(CCn1c(=O)sc2ccccc21)NCc1ccc2c(c1)OCO2
-17.3% | CCOC(=O)c1oc2ccc(Br)cc2c1NC(=O)CN1CCN(C)CC1
1.3% | CC(=O)N1N=C(C)CC1c1ccc(O)cc1 (stereo unspecified)
-14.9% | O=C1NC(=O)c2cc(Nc3ccc(F)cc3)c(Nc3ccc(F)cc3)cc21
-17.8% | Cc1ccccc1-n1c(SCC(=O)c2c(N)n(C)c(=O)n(C)c2=O)nc2sc3c(c2c1=O)CCCC3
-11.0% | Cn1c(=O)c(-c2ccc(F)cc2)nc2cncnc21
? | O=C(CN1C(=O)/C(=C\c2ccc(F)cc2)Oc2ccccc21)NCc1ccco1
2.5% | COc1cc(NC(=O)COC(=O)c2ccccc2F)cc(OC)c1
0.0% | Cc1ncc(C[n+]2csc(CCOC(=O)CC3C4CC5CC(C4)CC3C5)c2C)c(N)n1 (stereo unspecified)
0.9% | Cc1ccc(OCC(=O)N2CCN(C(=O)Cc3ccccc3)CC2)cc1
? | Cc1ccccc1CNC(=O)c1ccccc1N
-12.9% | CC1(C)CC(=O)C2=C(C1)N(C1CCCCC1)C(=O)C2(O)C(F)(F)F (stereo unspecified)
-25.4% | CCCCNC(=O)Cc1c(O)c2ccccc2[nH]c1=O
-13.7% | CC1=CCC2C(=O)N(c3cccc(C(=O)N(C)C4CCCCC4)c3)C(=O)C2C1 (stereo unspecified)
-10.4% | O=C(NCCCN1CCOCC1)c1ccc(CS(=O)(=O)Cc2ccc(Cl)cc2)o1
-7.8% | C/C(=C\c1cc(C(=O)O)c(C)o1)CO
3.0% | Cc1ccc(NC(=O)C2CCN(C(=O)NC3CCCCC3)CC2)cc1
-10.6% | O=C(N/N=C/c1c[nH]c2ccccc12)c1sc2ccccc2c1Cl
? | Cc1csc(N/N=C/c2ccc(O)c([N+](=O)[O-])c2)n1
-7.1% | CC1CN(CCCCOc2ccc(C(C)C)cc2)CC(C)O1 (stereo unspecified)
-7.2% | CC(C)CC(OC(=O)c1cccs1)C(=O)NCC1CCCO1 (stereo unspecified)
-1.7% | CS/C(=N\S(=O)(=O)c1cccs1)Nc1cccc(Cl)c1C
? | COc1ccccc1CSc1ncc(-c2ccc([N+](=O)[O-])cc2)[nH]1

# Given bar-delimited: part of the list above.
Molecule | HPGD block
CCc1nc(N2CCCCC2)c2oc3ccccc3c2n1 | -11.9%
CC1CN(CCCCOc2ccc(C(C)C)cc2)CC(C)O1 (stereo unspecified) | -7.1%
Cc1ccc(OCC(=O)N2CCN(C(=O)Cc3ccccc3)CC2)cc1 | 0.9%
CC1(C)CC(=O)C2=C(C1)N(C1CCCCC1)C(=O)C2(O)C(F)(F)F (stereo unspecified) | -12.9%
Cc1cc(C(=O)N2CCN(Cc3ccc4c(c3)OCO4)CC2)cs1 | -5.0%
CS/C(=N\S(=O)(=O)c1cccs1)Nc1cccc(Cl)c1C | -1.7%
CCOC(=O)c1c(C)oc2ccc(OCc3cc(C(=O)OC)oc3C)cc12 | -22.0%

# More results:
HPGD block | compound
-6.7% | COc1ccc(CC(=O)c2ccccc2C(=O)O)cc1
-10.2% | O=S(=O)(c1ccc(F)cc1)n1ccc(-c2cccc(OCc3c(F)cccc3Cl)c2)n1
-13.3% | O=C(CSc1ccccc1[N+](=O)[O-])NC1CCS(=O)(=O)C1 (stereo unspecified)
-6.5% | Cn1cc(Cl)c(C(=O)N2CCN(c3ncccn3)CC2)n1
-23.1% | CC1CCC(C(C)C)C(OC(=O)COC(=O)c2cccn2C)C1 (stereo unspecified)
-11.9% | CCn1c(CNC(=O)c2cccs2)n[nH]c1=S
-6.5% | CCOC(=O)N1CCN(C(=O)COc2ccc(S(=O)(=O)NC(C)C)cc2)CC1
-7.8% | Cc1nc(C2CC(=O)OC23CCCCC3)cs1 (stereo unspecified)
? | FC(F)(F)c1cc(-c2ccc(Cl)cc2)nc2ncnn12
-3.7% | COc1ccccc1CN1CCCC2(CCN(C(=O)c3cccc(F)c3)CC2)C1
-3.5% | CC(C)(C)NC[C@@H](O)c1ccc(O)c(CO)n1
-18.8% | COc1ccc(CCNC(=O)C2CC(=O)N(C3CCCC3)C2)cc1OC (stereo unspecified)
-9.0% | CC(=O)Nc1ccc(-n2c(C)nc(=O)c(-c3ccccc3)c2C)cc1
25.1µM* | C=CCN1C(c2ccccc2)=CS/C1=C(\C#N)c1nnc2n1CCCCC2
-24.3% | CCCC[n+]1ccn(-c2nc3ccccc3nc2[N-]S(=O)(=O)c2ccc(C)cc2)c1
12.6µM* | COc1cccc(-c2cc(=O)c3ccccc3o2)c1N
-6.7% | Cc1ccccc1NC(=O)c1cc(N)ccc1N1CCCCC1
-22.5% | Cn1c(=O)cc(SCC(=O)N2CCCC2)c2cc(Cl)ccc21
-7.6% | CC(C)C(NC(=O)OCc1ccccc1)C(=O)OCC(=O)N1C(C)CCCC1C (stereo unspecified)
-10.0% | Cc1ccc([N+](=O)[O-])cc1N=C(c1ccc([N+](=O)[O-])cc1)N1CCOCC1
-10.1% | CC1(C)C(=O)C2C[C@]3(O)C4=CC(=O)OC(c5ccoc5)[C@]4(C)CCC3[C@](C)(C2=O)C1CC(=O)O (stereo partly specified)
? | CCOc1c2ccc(C(=O)NCc3ccco3)cc2nn1CCOC
-3.0% | O=C(CSc1ncn[nH]1)Nc1c(F)cc(F)cc1Br
-7.8%&-9.2% | O=C1OCCN1C(=O)[C@H]1[C@H](c2ccc([N+](=O)[O-])cc2)C(c2cccc(Cl)c2)=NN1c1ccccc1
-23.6% | COc1ccc(OC)c(/C(O)=C/C(=O)C(=O)Nc2ccccc2OC)c1
-11.1% | O=C(CCCCn1c(=O)[nH]c2ccccc2c1=O)NCCc1c[nH]c2ccccc12
-18.7% | CC(=O)OCc1cc2cccc(C)c2[nH]c1=O
0.2% | CCOC(=O)CN1C(=O)N[C@@H](c2cccs2)C(C(C)=O)=C1C
-5.5% | CC(C)NC1CS(=O)(=O)CC1O (stereo unspecified)
